Six1-Eya2 blk: inhibitors of human Six1/Eya2 interaction; Q15475+O00167; AlphaScreen GST-Six1/His-Eya2 binding, biochemical; hits give low values; control for the full effect not named in the record; activity change, % (test concentration not listed); 0.56% of 360,000 active; AID 651725; in the data active = activity change below about -65%; inconclusive = about -30% to -65%; inactive = above about -30%; note: % is set by controls: 0 for no effect and ±100 for the full control effect; compound concentration not given in the record
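GST-Six1 + His-Eya2 (5X stock: 250/500 nM); Tris pH 8.0, 300 mM NaCl, 0.05% BSA, 0.02% Tween 20; GSH donor/Ni acceptor beads; 1 h 37 °C dark; AlphaScreen readout.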
D2 potentiator: human D2 receptor positive allosteric modulation; P14416; AID 624464; 0.23% of 360,000 active; DiscoveRx D2 beta-arrestin cells, luminescence, 90 min; 100% = 57 uM dopamine signal; potentiation, % (concentration not given with the values); active = potentiation of 50% or more; inconclusive = 30% to 50%; inactive = 30% or less;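 note: compound concentration not given in the record; tested on top of an EC20 dose of dopamine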
Target sequence (P14416 whole entry, looked up): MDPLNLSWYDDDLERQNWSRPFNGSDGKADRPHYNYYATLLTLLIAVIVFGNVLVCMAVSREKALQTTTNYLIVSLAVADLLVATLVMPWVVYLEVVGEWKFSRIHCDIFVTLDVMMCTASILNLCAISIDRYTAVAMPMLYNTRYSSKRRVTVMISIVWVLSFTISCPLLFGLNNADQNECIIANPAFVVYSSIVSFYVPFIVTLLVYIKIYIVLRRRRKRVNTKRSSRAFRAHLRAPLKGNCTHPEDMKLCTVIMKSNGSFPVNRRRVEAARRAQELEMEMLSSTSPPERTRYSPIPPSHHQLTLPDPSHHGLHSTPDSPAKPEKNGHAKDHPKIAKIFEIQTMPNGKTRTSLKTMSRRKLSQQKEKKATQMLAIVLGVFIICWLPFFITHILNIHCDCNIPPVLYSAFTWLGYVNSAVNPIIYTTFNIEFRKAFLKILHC
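D2 cells co-treated with compound plus 50 nM dopamine (EC20) for 90 min at 37 deg C to detect potentiation. Beta-arrestin recruitment was read as enzyme-fragment luminescence after 1 h at ambient temperature. Full response was set by 57 uM dopamine.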
CtBP-E1A inh: CtBP/E1A binding inhibition | 0.49% of 340,000 active | AlphaScreen GST-E1A/His-CtBP binding, 1536-well; hits give low values; control for the full effect not named in the record | activity change, % (no concentration beside the values); in the data active means activity change below about -65%; inconclusive means about -30% to -65%; inactive means above about -30%; note: % is set by controls: 0 for no effect and ±100 for the full control effect; compound concentration not given in the record
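In 5 uL wells, 23 nL compound meets equimolar GST-E1A and His-CtBP (5X stock 125 nM each) for 2 h, 37 °C. Beads (5X, 50 ug/mL) then 1 h, 37 °C, dark.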
gsp antagonist: antagonizes gsp, the McCune-Albright syndrome mutation. gsp-mutant cells, cAMP HTRF, 30 min; control for the full effect not named in the record. Potency, µM (top dose mostly 76.9 µM), for inactives: top-dose activity change, negative = inhibition, most hits filed as inhibitors. 0.4% of 340,000 active; active = falling curve of any shape with a large fitted effect; inconclusive = falling curve, mostly with a smaller effect; inactive = flat or rising curve; cell line not stated here;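 note: intracellular cAMP measured with PDE inhibitor Ro 20-1724 present during compound exposure; potency is the fitted concentration of half-maximal effect; % is set by controls: 0 for no effect and ±100 for the full control effect; nearly all actives have a fitted effect of over 65% in size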
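Cells, 2000/well, grown 16–24 h in DMEM 10% FBS with 0.5 mg/ml G418, then compounds plus […] (300 uM addition stock), 30 min at 37C. cAMP read by HTRF (cAMP-d2 and anti-cAMP antibody-K in lysis buffer) after 30 min RT.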
gsp ag: gsp mutant agonism; 0.13% of 340,000 active; gsp mutant cells, cAMP HTRF, 30 min; control for the full effect not named in the record; Potency, µM (doses to about 76.9 µM), inactives show at the top dose activation (cAMP increase), actives largely listed as activators; active = well fitted activation curve with a large enough effect; inconclusive = small, poorly fitted or top-dose-only effect, or another doubt; inactive = no such curve, though single readings can be large or run the other way; cell line not stated here;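 note: phosphodiesterase inhibitor Ro 20-1724 added with compounds to block cAMP breakdown; potency is the fitted concentration of half-maximal effect; nearly all actives have a fitted effect of over 60% in size; about a fifth of the inactives were tested at one dose only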
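Cells stably selected in G418 were plated at 2000/well, grown 16-24 hr, then given compounds in DMSO with the PDE inhibitor […] (300 uM solution added) for 30 min at 37C; cAMP was read by HTRF.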
D2 agonist: agonists of human D2 dopamine receptor (beta-arrestin). DiscoveRx PathHunter D2 beta-arrestin, luminescence, 90 min; 100% = 57 uM dopamine signal. activation, % (test concentration not listed). 0.084% of 360,000 active; in the data active = activation above about 40%; inconclusive = about 15% to 40%; inactive = below about 15%; note: compound concentration not given in the record; the text of the record calls up to 30% inactive
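Agonist mode: compounds alone added to overnight-plated D2 PathHunter cells for 90 min at 37 C, with 57 uM final dopamine (EC100) defining full response. Beta-arrestin recruitment detected by chemiluminescent reagent, read after 1 h at ambient temperature.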
The depositor's hits bear a star; ? = inconclusive; . = not tested or not shown; [ ] = another dose, or the depositor's remark.

#	Six1-Eya2 blk	D2 potentiator	CtBP-E1A inh	gsp antagonist	gsp ag	D2 agonist	Compound
1	-6	-1	0	-28%	-17%	-6.6	Cc1ccc(-n2nnnc2SCC(=O)Nc2sccc2C#N)cc1
2	12	2	-11	-6%	-38%[inhibitor]	3.3	CCCC12CN(C(=O)c3ccco3)CC(CCC)(CN(C(=O)c3ccco3)C1)C2=O
3	-15	-8	?	-7%	8%[15.4 µM]	3.2	Cn1cccc1-c1cc(C(=O)N/N=C/c2ccc(Cl)cc2)[nH]n1
4	-2	-3	5	-12%	9%	-2.7	Cc1nc(-n2ncc(C#N)c2N)c2c3c(sc2n1)CCC3
5	-6	-31	3	-6%	.	-1.8	COc1cc(CCCN2C(=O)C(=O)NC[C@H]2Cc2cccc3ccccc23)cc(OC)c1OC
6	-24	-3	-4	-30%	9%[15.4 µM]	-0.3	Cc1cccc(N2CCN(S(=O)(=O)c3c(C)nc4scc(C)n4c3=O)CC2C)c1 (configuration not stated)
7	-18	-2	-17	.	.	-2.4	CCC(=NNc1ccc([N+](=O)[O-])cc1[N+](=O)[O-])c1ccccc1
8	28	-7	13	6%	14%	0.0	Cc1cc(C)c(S(=O)(=O)c2ccccc2C)c(OCC(C)(C)C)n1
9	6	-3	.	-1%	-5%	-5.2	Cc1cc(/C=C2\C(=O)NN(c3ccccc3)C2=O)c(C)n1-c1ccccc1O
10	1	-6	5	.	.	7.2	CC(=O)Oc1ccccc1Cn1c(C)c(C(=O)N(C)Cc2ccc(F)cc2)sc1=O

Structural class: the entries above containing sulfur
#	Six1-Eya2 blk	D2 potentiator	CtBP-E1A inh	gsp antagonist	gsp ag	D2 agonist	Compound
1	-6	-1	0	-28%	-17%	-6.6	Cc1ccc(-n2nnnc2SCC(=O)Nc2sccc2C#N)cc1
4	-2	-3	5	-12%	9%	-2.7	Cc1nc(-n2ncc(C#N)c2N)c2c3c(sc2n1)CCC3
6	-24	-3	-4	-30%	9%[15.4 µM]	-0.3	Cc1cccc(N2CCN(S(=O)(=O)c3c(C)nc4scc(C)n4c3=O)CC2C)c1 (configuration not stated)
8	28	-7	13	6%	14%	0.0	Cc1cc(C)c(S(=O)(=O)c2ccccc2C)c(OCC(C)(C)C)n1
10	1	-6	5	.	.	7.2	CC(=O)Oc1ccccc1Cn1c(C)c(C(=O)N(C)Cc2ccc(F)cc2)sc1=O

(more compounds)
#	Six1-Eya2 blk	D2 potentiator	CtBP-E1A inh	gsp antagonist	gsp ag	D2 agonist	Compound
11	-13	-5	?	-4%	9%	-3.1	Cc1cccc(Cc2cccc(C)c2O)c1O
12	6	-3	1	-14%	1%	-0.7	Cc1ccnc(NS(=O)(=O)c2ccc(NC(=O)c3ccccc3F)cc2)n1
13	3	-12	-1	-20%	-5%	-1.8	O=C(Nc1cccc(OC(F)(F)F)c1)c1ccc(Br)o1
14	-11	-6	-2	-13%	19%	-1.3	Cc1ccc(-c2cc(C(=O)Nc3ccc(S(=O)(=O)Nc4ncccn4)cc3)c3ccccc3n2)cc1
15	0	3	-3	0%	27%[15.4 µM]	-3.1	CC1(C)Oc2ccc(C(=O)NNC(=O)Nc3ccccc3)cc2NC1=O
16	-2	2	2	-13%	-30%	3.3	CCOC(=O)C(C)Sc1nnc2n1C(C)(C)Cc1ccccc1-2 (configuration not stated)
17	-20	0	-25	9%	9%	-4.3	COc1ccc(/C=N/Nc2nnc(Cc3ccc(OC)c(OC)c3)c(=O)[nH]2)cc1OC
18	12	-9	-4	-8%	.	1.3	Cc1cc(CNC(=O)[C@H](C)[C@@H]2C[C@@]2(C)[C@@H](NC(=O)OCc2ccccc2)c2ccccc2)nn1C
19	1	0	7	-11%	-48%	1.9	COc1ccc(NS(=O)(=O)c2cccc(NC(=O)C34CCC(CC3)C4)c2)cc1
20	0	6	0	8%	2%	-4.3	CCc1sc(C(=O)N(CCCOC)c2c(N)n(CC(C)C)c(=O)[nH]c2=O)cc1C

Other structures follow.
#	Six1-Eya2 blk	D2 potentiator	CtBP-E1A inh	gsp antagonist	gsp ag	D2 agonist	Compound
21	2	-19	4	-8%	-7%[15.4 µM]	-1.8	O=C(COC(=O)/C=C/c1cccc(F)c1)NC1CC1
22	10	-3	6	7%	-4%	-2.5	OCCC1CN(Cc2ccncc2)CCN1C1CCCC1 (configuration not stated)
23	-1	-7	-2	-3%	-28%	1.6	O=C(NCC1CCCO1)c1cn(-c2ccccc2)nc1-c1ccccc1 (configuration not stated)
24	-9	5	-3	-9%	?	2.9	COc1ccc([C@H]2CC(=O)C=C(c3ccc4ncccc4c3)C2)cc1OC
25	-2	-8	10	-5%	-71%[inhibitor]	-0.6	CCOC(=O)C/C(C)=N/NC(=O)CN(c1ccc(Br)cc1)S(=O)(=O)c1ccccc1
26	-12	4	.	1%	-5%[15.4 µM]	8.6	CCc1nnc(NS(=O)(=O)c2ccc(Nc3ccc4nonc4c3[N+](=O)[O-])cc2)s1
27	2	-6	10	5%	-18%[15.4 µM]	-4.2	CC(=O)NCCC(=O)Nc1nc(-c2cccs2)c(-c2cccs2)s1
28	0	-23	9	4%	-35%[inhibitor]	-1.8	CC1=C(C(=O)OC(C)C)C(C2CC=CCC2)NC(=O)N1 (configuration not stated)
29	-9	3	-15	3%	9%	3.8	CCCC(NS(=O)(=O)c1ccc(-c2ccc(=O)[nH]n2)s1)c1cccs1 (configuration not stated)
30	4	9	-3	4%	-34%[inhibitor]	-0.8	Cc1ccccc1NS(=O)(=O)c1ccc(C)c(C(=O)N2CCOCC2)c1

Reprinted from the part before: 3 entries, followed by the next part.
#	Six1-Eya2 blk	D2 potentiator	CtBP-E1A inh	gsp antagonist	gsp ag	D2 agonist	Compound
28	0	-23	9	4%	-35%[inhibitor]	-1.8	CC1=C(C(=O)OC(C)C)C(C2CC=CCC2)NC(=O)N1 (configuration not stated)
29	-9	3	-15	3%	9%	3.8	CCCC(NS(=O)(=O)c1ccc(-c2ccc(=O)[nH]n2)s1)c1cccs1 (configuration not stated)
30	4	9	-3	4%	-34%[inhibitor]	-0.8	Cc1ccccc1NS(=O)(=O)c1ccc(C)c(C(=O)N2CCOCC2)c1
31	-8	-11	-3	5%	25%	0.4	Cc1cc(=O)oc2cc(OCC(=O)NCCN3CCOCC3)c(Cl)cc12
32	-4	-15	.	7%	-30%	-2.5	Cc1c(N=Cc2cc3c(cc2[N+](=O)[O-])OCO3)cccc1[N+](=O)[O-]
33	2	5	-12	6%	0%	-0.1	O=C(COC(=O)/C=C/c1ccc([N+](=O)[O-])cc1)NC(c1ccccc1)c1ccccc1
34	-18	5	2	-14%	0%	3.5	COc1cccc(NC(=O)C(Sc2nnc(-c3ccncc3)n2-c2ccc(Cl)cc2)c2ccccc2)c1 (configuration not stated)
35	5	-22	0	?	11%[15.4 µM]	-8.8	Cc1cc(/C=C2\Sc3ccccc3N2C)cc(C)[n+]1CC1CCCO1 (configuration not stated)
36	2	-12	-17	-3%	9%	-5.3	CCC(c1nnnn1C1CCCC1)N1CCN(c2cccc(OC)c2)CC1 (configuration not stated)
37	4	-12	-19	4%	-44%[inhibitor]	-1.5	Cc1cc(C)n(CCCNC(=O)CN(C)S(=O)(=O)c2ccc(Cl)cc2)n1
38	-6	-5	6	-29%	5%	0.7	O=C(Nc1ccc2c(c1)CCC2)c1cc(S(=O)(=O)Nc2ccc(F)cc2)c(Cl)cc1Cl
39	5	-7	-4	-4%	-11%[15.4 µM]	-1.6	O=C(Nc1ccccc1)c1cccc(Cn2cc(C(F)(F)F)ccc2=O)c1
40	16	4	14	-10%	?	-5.3	CNC(=S)N/N=C(\C)c1ccc(C(C)(C)C)cc1

Values in list order from above:
Entries 34 to 39 in CtBP-E1A inh: 2, 0, -17, -19, 6, -4

One compound at a time, from the list above. Screens in order: Six1-Eya2 blk, D2 potentiator, CtBP-E1A inh, gsp antagonist, gsp ag, D2 agonist
Listed for O=C(Nc1ccccc1)c1cccc(Cn2cc(C(F)(F)F)ccc2=O)c1 = 5, -7, -4, -4%, -11%[15.4 µM], -1.6
Listed for Cc1cc(=O)oc2cc(OCC(=O)NCCN3CCOCC3)c(Cl)cc12 = -8, -11, -3, 5%, 25%, 0.4

(listing goes on)
#	Six1-Eya2 blk	D2 potentiator	CtBP-E1A inh	gsp antagonist	gsp ag	D2 agonist	Compound
41	0	4	-16	16%	7%	-1.3	O=C(OCCN1C(=O)c2ccccc2C1=O)c1cnccn1
42	-13	22	10	-7%	10%	-2.2	COc1ccc(OC)c(C(c2nnnn2CC2CCCO2)N2CCN(C3CCCC3)CC2)c1 (configuration not stated)
43	-5	-3	-5	-16%	1%	0.2	CCCOc1ccc(-c2nc(C#N)c(N3CCC(C(N)=O)CC3)o2)cc1
44	0	-6	6	13%	-6%	1.4	CC(C)NS(=O)(=O)c1ccc(Oc2ncc(C(F)(F)F)cc2Cl)cc1
45	-1	-2	1	-2%	13%	-2.2	CCn1c(-c2cc(OC)c(OC)c(OC)c2)n[nH]c1=S
46	1	-7	5	2%	1%[15.4 µM]	-1.6	Cc1onc(-c2ccccc2Cl)c1C(=O)NNC(=O)c1cccc(F)c1
47	-1	-11	0	-5%	2%	-6.1	NNC(=S)Nc1c(Br)cc(F)cc1Br
48	-3	-18	-5	17%	-19%	-4.1	Clc1ccc(CNc2nc(N3CCOCC3)nc(N3CCOCC3)n2)cc1
49	-1	2	13	-7%	8%[15.4 µM]	-0.5	Cc1nn(Cc2cccc(C(=O)NN)c2)c(C)c1Cl
50	2	-6	7	8%	6%	-2.5	O=C(CSc1nnc(CNC(=O)c2ccco2)o1)Nc1ccccc1F

(continued)
#	Six1-Eya2 blk	D2 potentiator	CtBP-E1A inh	gsp antagonist	gsp ag	D2 agonist	Compound
51	-4	3	7	?	-12%	2.7	O=S(=O)(N/N=C\c1cn(-c2ccccc2)nc1-c1ccccc1)c1ccccc1
52	-4	-9	-7	.	.	-4.2	Nc1ncnc2c1ncn2[C@@H]1O[C@H](CNC(=O)OC[C@@H](N)Cc2ccccc2)[C@@H](O)[C@H]1O
53	5	11	4	.	-67%[inhibitor]	0.5	COc1cccc(C(=O)N2C(C(C)C)COc3cc(Br)ccc3S2(=O)=O)c1 (configuration not stated)
54	-14	-18	-22	-1%	?	-12	CCCCCCCCCn1c2c(c(=N)c3c1CCC3)CCCC2
55	-16	-4	-3	2%	7%[15.4 µM]	-8.4	COc1cc(S(=O)(=O)N2CCn3cccc3C2C)ccc1NC(C)=O (configuration not stated)
56	9	-9	14	0%	?	-0.3	Cn1c(Sc2ccccc2Cl)c(C=O)c2ccccc21
57	-23	-18	-10	-2%	?	-1.2	CCc1ccc(C(=O)/C=C/c2ccc([N+](=O)[O-])o2)cc1
58	2	.	0	2%	.	-2.2	COC(=O)CC(=O)O[C@H]1C=C[C@@H](NC(=O)OC(C)(C)C)C1
59	2	-13	-3	10%	34%	1.9	Cc1ccc(C(=O)NCC(=O)NCc2cc(=O)n(C)c(=O)n2C)cc1

Assay outcomes: PubChem BioAssay, National Center for Advancing Translational Sciences (NCATS)
